High-throughput results deposited in PubChem BioAssay by several laboratories.
HSV replic up = HSV replication enhancement; HSV replication augmentation in cells, fold increase; maximum fold increase; actives 0.005% (n = 220,000);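 active means peak rise of 1.5-fold or more in the series; tested in PC3 cells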;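 further: first round at 10 µM; read as green reporter fluorescence; hits show the peak of a series up to 25 µM; 1 = signal of infected wells without compound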
PKD1 inh = inhibitors of human PKD1 kinase; actives 0.056% (n = 200,000); AID 797; PKD1 kinase fluorescence polarization assay; inhibition, %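 (about 10 µM by stock and volumes)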; Q15139;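 active means inhibition of 50% or more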;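 further: controls were vehicle for no effect and a reference inhibitor for full effect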
Target sequence (Q15139 whole entry, looked up): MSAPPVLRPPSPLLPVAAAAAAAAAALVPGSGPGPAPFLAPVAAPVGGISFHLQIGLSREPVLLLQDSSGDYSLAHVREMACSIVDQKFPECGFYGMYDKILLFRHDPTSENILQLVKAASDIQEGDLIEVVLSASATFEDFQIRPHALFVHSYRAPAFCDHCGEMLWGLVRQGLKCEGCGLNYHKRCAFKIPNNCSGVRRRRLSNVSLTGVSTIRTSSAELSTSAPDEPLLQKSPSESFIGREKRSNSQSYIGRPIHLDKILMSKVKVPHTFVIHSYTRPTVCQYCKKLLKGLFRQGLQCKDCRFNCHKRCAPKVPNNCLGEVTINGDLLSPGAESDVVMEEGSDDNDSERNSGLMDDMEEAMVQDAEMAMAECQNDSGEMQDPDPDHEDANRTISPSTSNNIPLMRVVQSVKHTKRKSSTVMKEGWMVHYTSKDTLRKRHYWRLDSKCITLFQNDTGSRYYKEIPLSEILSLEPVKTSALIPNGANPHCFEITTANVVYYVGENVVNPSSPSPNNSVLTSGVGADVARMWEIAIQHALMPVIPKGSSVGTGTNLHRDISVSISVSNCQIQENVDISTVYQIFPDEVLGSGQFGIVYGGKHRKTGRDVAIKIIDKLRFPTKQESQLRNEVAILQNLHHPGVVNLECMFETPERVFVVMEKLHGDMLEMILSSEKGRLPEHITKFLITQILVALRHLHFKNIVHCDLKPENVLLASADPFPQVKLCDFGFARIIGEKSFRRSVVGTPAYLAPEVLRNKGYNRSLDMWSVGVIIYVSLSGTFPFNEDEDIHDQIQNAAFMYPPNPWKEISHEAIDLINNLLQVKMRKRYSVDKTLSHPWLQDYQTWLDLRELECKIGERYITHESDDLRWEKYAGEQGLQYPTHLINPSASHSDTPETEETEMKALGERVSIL
INS promoter inh = TRM-6 insulin promoter activity inhibition | TRM-6 cells (human fetal islet line), insulin promoter-eGFP reporter, imaging; reporter expression induced with tamoxifen | inhibition, % at 2 µM | actives 0.9% (n = 130,000) | AID 1273;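 active means inhibition above the mean plus 3 SD, with well images judged a real hit on visual review, cut at about 60% in these data, passing the limit was not always enough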
RGS16-Gao = RGS16-Galphao interaction regulator (human); O15492+P09471; bead-based flow cytometry RGS16-Galphao binding, fluorescence; actives lie on both sides; binding response (% of control), % at 10 µM; actives 0.38% (n = 220,000); AID 1441;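 active means below 25% or above 175%, edge rows of some plates excepted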;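 further: Galphao activated by GDP with aluminum fluoride before binding; 100% = wells without compound and 0% = beads without RGS; some results beyond the cut were filed as inactive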
GALR2 ag = agonists of human galanin receptor 2 (GALR2); GALR2-expressing cells, agonist activation read-out; activation, %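 (tested at 5 µM)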; AID 803; actives 0.48% (n = 140,000);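 active means above mean plus 3 SD of all compounds, about 5% in these data, not always enough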;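 further: 0% = vehicle buffer wells and 100% = reference agonist at full effect; tested in CHO reporter cells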
INS promoter inh cell count = also measured in INS promoter inh; calls as there; normalized cell count, %; measured here: cell count, toxicity; reference of the scale not given here;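 cells exposed to compound for 48 h; stained nuclei by imaging scaled within each plate; lower means fewer cells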
HSV replic up primary fold = also measured in HSV replic up; calls as there; fold increase; compound at 10 µM; measured here: primary screen fold increase 10 uM; tested in PC3 cells;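 GFP signal in the first replicate; 1 = infected wells without compound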
Starred values were filed as active, the others as inactive.

Screening COc1ccc(-c2nn(CCC(=O)O)cc2/C=C2\SC(N)=NC2=O)cc1OC returned HSV replic up inactive, PKD1 inh -5.3, INS promoter inh 55.6, RGS16-Gao 103.8, GALR2 ag 0.1, INS promoter inh cell count 94.7 and HSV replic up primary fold 1.07.
For O=C(Cn1nc(C(F)(F)F)c2c1CCCCC2)N1CCOCC1 the results were HSV replic up inactive, PKD1 inh -2.2, INS promoter inh -243.8, RGS16-Gao 105.2, GALR2 ag -0.8, INS promoter inh cell count 109.0 and HSV replic up primary fold 0.94.
Screening COc1ccc2[nH]c3ccccc3c2c1 returned PKD1 inh -7.8, RGS16-Gao 107.3 and GALR2 ag -4.3.
Screening COc1ccc(N2CCN(C(=O)CCNS(=O)(=O)c3ccc(Br)s3)CC2)cc1 returned HSV replic up inactive, PKD1 inh 8.2, INS promoter inh 30.0, RGS16-Gao 103.4, GALR2 ag -0.3, INS promoter inh cell count 86.9 and HSV replic up primary fold 0.76.
O=C(NCc1ccccc1)C(=O)Nc1cccc(C(=O)O)c1 was read as HSV replic up inactive, RGS16-Gao 99.8 and HSV replic up primary fold 1.02.
CC1(C)C(=O)OC(c2cccn2-c2cccc([N+](=O)[O-])c2)C2(CCCCC2)C1=O (stereo not drawn) was read as HSV replic up inactive, PKD1 inh 5.0, RGS16-Gao 96.8, GALR2 ag -2.1 and HSV replic up primary fold 1.
O=C(CSCc1c(F)cccc1Cl)NCc1cccnc1 was read as HSV replic up inactive, PKD1 inh -2.8, INS promoter inh -34.5, RGS16-Gao 108.9, GALR2 ag 0.6, INS promoter inh cell count 158.6 and HSV replic up primary fold 0.96.
`O=C(O)CCc1ccc(-c2ccccc2)n1NC(=O)c1sc2ccccc2c1Cl` gave HSV replic up inactive, PKD1 inh -4.3, INS promoter inh -32.3, RGS16-Gao 98.3, GALR2 ag -2.8, INS promoter inh cell count 57.5 and HSV replic up primary fold 0.92.
O=C(Oc1cc(Cl)ccc1Cl)c1ccc(N2CCOCC2)c([N+](=O)[O-])c1 was read as HSV replic up inactive, PKD1 inh -5.0, INS promoter inh 21.9, RGS16-Gao 99.3, GALR2 ag -0.7, INS promoter inh cell count 131.1 and HSV replic up primary fold 0.88.
CSC(=O)NC(=O)NC(=O)c1ccc([N+](=O)[O-])cc1 was read as HSV replic up inactive, RGS16-Gao 105.6 and HSV replic up primary fold 1.06.
For Cc1cccc(C)c1OCC(O)CNC(C)(C)C (stereo not drawn) the results were HSV replic up inactive, PKD1 inh -7.5, INS promoter inh 16.7, RGS16-Gao 72.6, GALR2 ag -1.0, INS promoter inh cell count 83.8 and HSV replic up primary fold 0.92.
CC(C)c1nc2c(c(=O)c3ccccc3n2C)c(=O)n1CCc1ccccc1 was read as HSV replic up inactive, RGS16-Gao 94.2 and HSV replic up primary fold 1.03.
For Cc1ccc2nc(SCC(=O)Nc3ncccn3)[nH]c2c1 the results were HSV replic up inactive, RGS16-Gao 90.6 and HSV replic up primary fold 0.88.
Screening CCCN(CCC)CCNC(=O)c1cc2c(=O)n(CC)c3ccccc3c2s1 returned HSV replic up inactive, RGS16-Gao 97.1 and HSV replic up primary fold 0.79.
For COc1ccc(C)cc1N(CC(N)=O)S(=O)(=O)c1ccc(C)cc1 the results were HSV replic up inactive, PKD1 inh 2.9, RGS16-Gao 96.8, GALR2 ag -0.8 and HSV replic up primary fold 0.91.
O=C(c1cccc(F)c1)N1CCN(c2ccc([N+](=O)[O-])c(N3CCCCC3)c2)CC1 was read as HSV replic up inactive, PKD1 inh 3.2, INS promoter inh 10.3, RGS16-Gao 101.8, GALR2 ag -1.9, INS promoter inh cell count 76.0 and HSV replic up primary fold 1.04.
Screening CCOC(=O)C1(Cc2ccccc2)NC(c2ccccc2F)C2C(=O)N(CC)C(=O)C21 (stereo not drawn) returned HSV replic up inactive, PKD1 inh -19.2, RGS16-Gao 102.9, GALR2 ag -1.4 and HSV replic up primary fold 0.84.
Cc1[nH]n(-c2ccc(F)cc2)c(=O)c1C=Nc1ccc(S(=O)(=O)N(C)C)cc1 was read as HSV replic up inactive, PKD1 inh 2.6, INS promoter inh 20.0, RGS16-Gao 100.0, GALR2 ag -0.9, INS promoter inh cell count 189.2 and HSV replic up primary fold 0.95.
Screening COC(=O)Cc1cnc(NC(=O)C2C3CCC(C3)C2C(=O)O)s1 (stereo not drawn) returned HSV replic up inactive, PKD1 inh -4.1, INS promoter inh 8.3, RGS16-Gao 99.5, GALR2 ag -3.9, INS promoter inh cell count 105.5 and HSV replic up primary fold 0.87.
`COc1ccc(-n2c(=O)cc(N3CCN(c4ccccc4)CC3)[nH]c2=O)cc1` gave HSV replic up inactive, PKD1 inh -3.9, INS promoter inh 20.9, RGS16-Gao 98.3, GALR2 ag -2.9, INS promoter inh cell count 97.2 and HSV replic up primary fold 1.22.
For CCN(CC)CCCn1c(C)cc2c(c1=O)C(c1cc(OC)c(OC)cc1OC)C(C#N)=C(N)O2 (stereo not drawn) the results were HSV replic up inactive, PKD1 inh -12.8, INS promoter inh -30.0, RGS16-Gao 112.0, GALR2 ag 0.4, INS promoter inh cell count 116.0 and HSV replic up primary fold 0.91.
O=C(CSC(=S)N1CCSCC1)c1ccccc1 was read as HSV replic up inactive, PKD1 inh 0.0, INS promoter inh -8.3, RGS16-Gao 107.6, INS promoter inh cell count 128.0 and HSV replic up primary fold 0.92.
Screening O=c1c2ccc([N+](=O)[O-])cc2ncn1Cc1ccccc1C(F)(F)F returned HSV replic up inactive, PKD1 inh -3.4, RGS16-Gao 100.8 and HSV replic up primary fold 0.86.
Screening CCc1c(C(=O)NN2C(=O)C3CCCCC3C2=O)csc1C (stereo not drawn) returned HSV replic up inactive, PKD1 inh -9.9, RGS16-Gao 87.2, GALR2 ag -0.6 and HSV replic up primary fold 0.98.
Screening CN1/C(=C\C(=O)C[n+]2cccc(Br)c2)C(C)(C)c2ccccc21 returned PKD1 inh 3.3, INS promoter inh 21.4, RGS16-Gao 97.7 and INS promoter inh cell count 106.1.
For CCc1cc2c(N3CCN(C(=O)c4ccco4)CC3)ncnc2s1 the results were HSV replic up inactive, PKD1 inh -0.8, RGS16-Gao 106.0 and HSV replic up primary fold 0.92.
Screening CC(C)(C)N(NC(=O)OCc1ccccc1)C(=O)c1ccccc1 returned HSV replic up inactive, PKD1 inh 3.5, INS promoter inh -85.2, RGS16-Gao 113.2, GALR2 ag -1.5, INS promoter inh cell count 79.0 and HSV replic up primary fold 1.02.
Screening COc1cc(NC(=S)N2CCN(C(=O)c3ccco3)CC2)c(OC)cc1Cl returned HSV replic up inactive, PKD1 inh -0.9, RGS16-Gao 98.8, GALR2 ag -2.1 and HSV replic up primary fold 0.95.
`CCOC(=O)COn1c(=O)c(-c2cccs2)[n+]([O-])c2ccccc21` gave HSV replic up inactive, PKD1 inh -1.9, INS promoter inh 48.6, RGS16-Gao 100.4, GALR2 ag -1.9, INS promoter inh cell count 107.4 and HSV replic up primary fold 0.8.
CCc1nc2sc3c(c2c(=O)n1N)CCC3 was read as HSV replic up inactive, PKD1 inh -12.5, INS promoter inh -10.0, RGS16-Gao 113.0, GALR2 ag -1.0, INS promoter inh cell count 124.7 and HSV replic up primary fold 1.11.

Compounds listed so far with a Cl atom (four):
O=C(CSCc1c(F)cccc1Cl)NCc1cccnc1 was read as HSV replic up inactive, PKD1 inh -2.8, INS promoter inh -34.5, RGS16-Gao 108.9, GALR2 ag 0.6, INS promoter inh cell count 158.6 and HSV replic up primary fold 0.96.
`O=C(O)CCc1ccc(-c2ccccc2)n1NC(=O)c1sc2ccccc2c1Cl` gave HSV replic up inactive, PKD1 inh -4.3, INS promoter inh -32.3, RGS16-Gao 98.3, GALR2 ag -2.8, INS promoter inh cell count 57.5 and HSV replic up primary fold 0.92.
O=C(Oc1cc(Cl)ccc1Cl)c1ccc(N2CCOCC2)c([N+](=O)[O-])c1 was read as HSV replic up inactive, PKD1 inh -5.0, INS promoter inh 21.9, RGS16-Gao 99.3, GALR2 ag -0.7, INS promoter inh cell count 131.1 and HSV replic up primary fold 0.88.
Screening COc1cc(NC(=S)N2CCN(C(=O)c3ccco3)CC2)c(OC)cc1Cl returned HSV replic up inactive, PKD1 inh -0.9, RGS16-Gao 98.8, GALR2 ag -2.1 and HSV replic up primary fold 0.95.

Further compounds:
`NC(=O)N/N=C/c1cn(-c2ccccc2)nc1-c1ccccc1` gave HSV replic up inactive, PKD1 inh -3.0, INS promoter inh 21.4, RGS16-Gao 102.6, INS promoter inh cell count 140.2 and HSV replic up primary fold 0.85.
Screening C[C@H](NC(=O)NC1CCCc2ccccc21)C(=O)O (stereo partly drawn) returned HSV replic up inactive, PKD1 inh -11.4, INS promoter inh 2.9, RGS16-Gao 105.3, GALR2 ag -1.6, INS promoter inh cell count 232.0 and HSV replic up primary fold 0.89.
O=c1c(C(c2nnnn2C2CCCCC2)N2CCCCC2)coc2ccc(Cl)cc12 (stereo not drawn) was read as HSV replic up inactive, PKD1 inh -1.4, INS promoter inh -31.2, RGS16-Gao 93.9, GALR2 ag -0.5, INS promoter inh cell count 82.6 and HSV replic up primary fold 0.79.
`NC(=O)C1(C(N)=O)OC1c1ccc(Cl)c(Cl)c1` (stereo not drawn) gave HSV replic up inactive, RGS16-Gao 101.4 and HSV replic up primary fold 0.88.
`Cc1ccccc1C(=O)NCCCc1ccccc1` gave PKD1 inh 0.6, INS promoter inh -33.3, RGS16-Gao 40.3, GALR2 ag 0.4 and INS promoter inh cell count 93.1.
For O=C(Cc1c[nH]c2ccccc12)Nc1nc2ccccc2[nH]1 the results were HSV replic up inactive, PKD1 inh -1.1, RGS16-Gao 91.5, GALR2 ag -1.5 and HSV replic up primary fold 0.89.
N#Cc1sc2nc3c(c(-c4ccco4)c2c1N)CCCC3 was read as PKD1 inh 17.0, RGS16-Gao 167.8 and GALR2 ag -1.0.
`O=C(O)c1cccc(-n2cccc2/C=C2/NC(=O)N(c3cccc(Cl)c3)C2=O)c1` gave HSV replic up inactive, RGS16-Gao 105.4 and HSV replic up primary fold 1.09.
Screening CCCn1c(NCc2cc(C)ccc2O)nc2ccccc21 returned HSV replic up inactive, PKD1 inh -5.9, INS promoter inh -46.0, RGS16-Gao 112.1, GALR2 ag -2.0, INS promoter inh cell count 105.9 and HSV replic up primary fold 1.04.
For CC(C)NC(=O)c1ccc(-n2nc(C(F)(F)F)c3c2CCCC3)cc1 the results were HSV replic up inactive, PKD1 inh 4.3, RGS16-Gao 98.8, GALR2 ag -0.2 and HSV replic up primary fold 1.21.
For Cc1cccc(/C=C\c2nc3ccccc3c(=O)[nH]2)c1 the results were HSV replic up inactive, PKD1 inh 0.1, INS promoter inh 21.4, RGS16-Gao 97.5, GALR2 ag -0.7, INS promoter inh cell count 106.5 and HSV replic up primary fold 0.76.
Screening COc1ccc(C(=O)N(CC2CCCO2)C(C(=O)NCCC(C)C)c2ccc(C)cc2)cc1OC (stereo not drawn) returned HSV replic up inactive, PKD1 inh 10.7, INS promoter inh -20.0, RGS16-Gao 99.8, GALR2 ag -2.4, INS promoter inh cell count 95.0 and HSV replic up primary fold 1.03.
Screening CC(C)(C)c1cn(-c2ccc(F)cc2)c(=S)[nH]1 returned HSV replic up inactive, PKD1 inh 3.4, INS promoter inh 3.3, RGS16-Gao 90.7, GALR2 ag -2.8, INS promoter inh cell count 94.6 and HSV replic up primary fold 0.93.
COC(=O)c1ccccc1NC(=O)C1CCN(C(=O)c2cc(OC)c(OC)c(OC)c2)CC1 was read as HSV replic up inactive, PKD1 inh 7.6, INS promoter inh 0.0, RGS16-Gao 104.0, GALR2 ag -2.2, INS promoter inh cell count 71.4 and HSV replic up primary fold 0.89.
Screening Cc1ccc(CNC(=O)C23CN(Cc4ccccc4)CC2C(c2ccc([N+](=O)[O-])cc2)=NO3)cc1 (stereo not drawn) returned HSV replic up inactive, PKD1 inh 6.8, INS promoter inh 44.4, RGS16-Gao 105.6, GALR2 ag 0.0, INS promoter inh cell count 50.0 and HSV replic up primary fold 1.2.
Clc1ccc(OCc2nnc(SCc3nnc(-c4ccccc4)o3)o2)c(Cl)c1 was read as HSV replic up inactive, PKD1 inh 10.0, INS promoter inh -15.2, RGS16-Gao 96.7, GALR2 ag -2.7, INS promoter inh cell count 121.4 and HSV replic up primary fold 1.05.
Screening Cc1ccc(S(=O)(=O)N2CCN(C(=O)CSc3nnc(C)s3)C2)cc1 returned HSV replic up inactive, PKD1 inh -9.5, RGS16-Gao 106.0, GALR2 ag -2.2 and HSV replic up primary fold 0.86.
`O=C(c1cccc(F)c1)N1CCN(CC2CC3C=CC2C3)CC1` (stereo not drawn) gave HSV replic up inactive, PKD1 inh 12.2, RGS16-Gao 102.5, GALR2 ag -0.1 and HSV replic up primary fold 1.06.
For Cn1c(=O)n(C)c2cc([N+](=O)[O-])c(N3CCN(C(=O)c4ccccc4)CC3)cc21 the results were HSV replic up inactive, PKD1 inh -1.1, INS promoter inh 10.0, RGS16-Gao 98.3, GALR2 ag -1.1, INS promoter inh cell count 101.7 and HSV replic up primary fold 0.97.
